# From PubChem
# Sfp PPTase inh: qHTS Assay for Inhibitors of Bacillus subtilis Sfp phosphopantetheinyl transferase (PPTase) | Biochemical Sfp PPTase activity, qHTS | actives 3.5% (n = 310,000) | Potency, µM, without a hit: max response, negative = inhibition, actives largely listed as inhibitors | 4'-phosphopantetheinyl transferase ffp (Bacillus subtilis), Q9F4F7; active = well fitted inhibition curve with a large enough effect; inconclusive = small, poorly fitted or top-dose-only effect, or another doubt; inactive = no such curve, though single readings can be large or run the other way;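 also: the enzyme is Sfp with the accession as filed and its product quenches rhodamine fluorescence; potency is read from the fitted curve at half-maximal effect; 0% = enzyme reaction without inhibitor and -100% = no enzyme wells; top concentration of the series not given in the record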
#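 Sfp 15 nM + cpd, 15 min RT; start w/ rhodamine-CoA 5 uM, BHQ-2-YbbR 12.5 uM (final); 50 mM Hepes pH 7.6, 10 mM MgCl2, 0.01% NP-40, 0.01% BSA; read 525/598 nm at 0 and 30 min.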
# TRPV1 PAM: HTS Assay for Compounds that Act as Potentiators of the Vanilloid Receptor 1; Transient receptor potential cation channel subfamily V member 1 (Homo sapiens), Q8NER1; TRPV1-expressing cells, Fluo-8 calcium influx, capsaicin EC20 potentiation; host cell line not named in the record; control for the full effect not named in the record; potentiation, % at 8.33 µM; actives 0.02% (n = 320,000); AID 540277, 2011; active means potentiation above 80%; inconclusive means 30% to 80%; inactive means below 30%; also: 0% is about no effect
# Target sequence (Q8NER1 whole entry, looked up): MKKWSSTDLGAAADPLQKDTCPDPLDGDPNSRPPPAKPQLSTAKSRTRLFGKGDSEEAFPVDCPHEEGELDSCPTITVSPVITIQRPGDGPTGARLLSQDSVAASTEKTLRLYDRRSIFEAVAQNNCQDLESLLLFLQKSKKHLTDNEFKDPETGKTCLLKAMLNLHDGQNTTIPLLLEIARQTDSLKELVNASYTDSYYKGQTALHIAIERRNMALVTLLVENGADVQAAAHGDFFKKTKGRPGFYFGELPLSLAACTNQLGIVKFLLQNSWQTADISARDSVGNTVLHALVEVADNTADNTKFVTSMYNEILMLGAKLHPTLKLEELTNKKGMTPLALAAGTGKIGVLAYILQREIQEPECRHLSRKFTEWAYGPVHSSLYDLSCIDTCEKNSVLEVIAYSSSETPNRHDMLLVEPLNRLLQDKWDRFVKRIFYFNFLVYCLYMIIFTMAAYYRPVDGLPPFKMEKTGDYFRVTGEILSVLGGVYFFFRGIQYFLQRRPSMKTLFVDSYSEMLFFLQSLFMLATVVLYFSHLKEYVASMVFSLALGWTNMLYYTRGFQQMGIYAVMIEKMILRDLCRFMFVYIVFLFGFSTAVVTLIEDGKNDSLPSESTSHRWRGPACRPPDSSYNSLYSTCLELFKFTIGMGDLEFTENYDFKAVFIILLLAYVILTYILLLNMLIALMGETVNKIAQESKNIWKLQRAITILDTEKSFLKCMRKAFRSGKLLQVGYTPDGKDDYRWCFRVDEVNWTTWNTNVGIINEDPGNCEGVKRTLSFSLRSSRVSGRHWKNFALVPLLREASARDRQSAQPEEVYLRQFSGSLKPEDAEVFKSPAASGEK
#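 TRPV1-expressing cells were cultured overnight at 35.5C and loaded with Fluo-8 calcium dye for 40 to 90 min at room temperature. After a 10 s baseline, compound was added and calcium influx was read kinetically for 3 min (ex 480/em 520 nm).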
# Menin MLL FP FL: qHTS Assay for Inhibitors Targeting the Menin-MLL Interaction in MLL Related Leukemias: Competition With Fluorescein Labeled MLL-derived Peptide; 290,000 tested, under 10 active; Fluorescence polarization, fluorescein-MLL peptide displacement from menin; FP activity change, % at 61.4 µM; inconclusive = falling polarisation curve, or a change in total fluorescence; inactive = total fluorescence flat and polarisation flat or rising; no compound was filed as active; the % refers to the polarisation; negative = inhibition;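 also: % of control where 0% means no effect; inhibitors lower the polarisation; unlabelled MLL peptide was the positive control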
# TRPML1 blocker: qHTS for Inhibitors of the Human Mucolipin Transient Receptor Potential 1 (TRPML1); Mucolipin-1 (Homo sapiens), Q9GZU1; TRPML1-inducible cells, Ca2+ dye fluorescence, FDSS; hits give low values; inhibition of EC80 agonist-evoked calcium signal; activity change, negative = inhibition, % (concentration not given with the values); actives 0.02% (n = 390,000); AID 624415, 2012; in the data active means activity change below about -50%; inconclusive means about -30% to -50%; inactive means above about -30%;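 also: stimulus is agonist 54-4 at its EC80 concentration; % is scaled to controls: 0 for no effect and ±100 for the full control effect; compound concentration not given in the record; the text of the record puts the active cut at -80%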
#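 TRPML1-DL cells, Tet-induced overnight (~16 h, 37 °C) at 1,500 cells/well, were loaded with Ca8 no-wash dye plus quencher for 45-90 min at room temperature. Compounds were pinned during FDSS kinetic reading; agonist 54-4 at EC80 (4 uM final) then added.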
# gsp ag: qHTS for Agonist of gsp, the Etiologic Mutation Responsible for Fibrous Dysplasia/McCune-Albright Syndrome: qHTS. Potency, µM (titrated, usually from 76.9 µM), without a hit: top-dose activation (cAMP increase), hits mostly activators. AID 624287, 2012. actives 0.13% (n = 340,000). gsp mutant cells, cAMP HTRF, 30 min; control for the full effect not named in the record; active = well fitted activation curve with a large enough effect; inconclusive = small, poorly fitted or top-dose-only effect, or another doubt; inactive = no such curve, though single readings can be large or run the other way; cell line not stated here;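 also: phosphodiesterase inhibitor Ro 20-1724 added with compounds to block cAMP breakdown; potency is read from the fitted curve at half-maximal effect; nearly all actives have a fitted effect of over 60% in size; about a fifth of the inactives were tested at one dose only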
#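 Cells in DMEM/10% FBS with G418 were pretreated with compounds in DMSO plus […] (300 uM stock) for 30 min at 37C. cAMP was measured by HTRF (cAMP-d2 plus anti-cAMP antibody-K) after 30 min at room temperature.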
# gsp antagonist: qHTS for Antagonists of gsp, the Etiologic Mutation Responsible for Fibrous Dysplasia/McCune-Albright Syndrome: qHTS; gsp-mutant cells, cAMP HTRF, 30 min; control for the full effect not named in the record; Potency, µM (titrated, usually from 76.9 µM), without a hit: at the top dose activity change, negative = inhibition, actives largely listed as inhibitors; actives 0.4% (n = 340,000); active = falling curve of any shape with a large fitted effect; inconclusive = falling curve, mostly with a smaller effect; inactive = flat or rising curve; cell line not stated here;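 also: intracellular cAMP measured with PDE inhibitor Ro 20-1724 present during compound exposure; potency is read from the fitted curve at half-maximal effect; % is scaled to controls: 0 for no effect and ±100 for the full control effect; nearly all actives have a fitted effect of over 65% in size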
#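 HTRF cAMP measurement after 30 min RT detection following 30 min, 37C compound treatment alongside […] (added as 300 uM solution) in G418-selected cells seeded at 2000/well and grown 16–24 h.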
# ClpP mod: qHTS Assay for Activators of ClpP; purified B. subtilis ClpP, FRET peptide cleavage, 20 min; Potency, µM (top dose mostly 57.5 µM), for inactives: at the top dose activity change, negative = active; actives 1.9% (n = 340,000); active = well fitted falling curve with a large enough effect; inconclusive = small, poorly fitted or top-dose-only effect; inactive = no such curve, though single readings can be large or run the other way; also: potency is read from the fitted curve at half-maximal effect; the source files actives as falling curves though it sought activators and does not explain the sign; nearly all actives have a fitted effect of over 65% in size; many hits overshoot -100%
# Target sequence (P80244 whole entry, looked up): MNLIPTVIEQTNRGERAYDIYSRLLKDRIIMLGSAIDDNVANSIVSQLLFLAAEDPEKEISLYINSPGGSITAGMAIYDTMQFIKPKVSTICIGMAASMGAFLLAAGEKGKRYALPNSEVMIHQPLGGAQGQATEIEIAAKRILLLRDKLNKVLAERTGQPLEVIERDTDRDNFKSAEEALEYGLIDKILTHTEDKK
#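 Buffer: 100 mM Tris/HCl pH8, 100 mM KCl, 0.05% low protease BSA, 2.5% glycerol, 0.01% Tween-20. ClpP 10 microg/mL final; 20 min RT; delta FRET normalized to ADEP and DMSO controls.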
# The depositor's hits bear a star; ? = inconclusive; . = no result given; & = joins results of further samples; [ ] = dose if it differs, or a comment.
SMILES,Sfp PPTase inh,TRPV1 PAM,Menin MLL FP FL,TRPML1 blocker,gsp ag,gsp antagonist,ClpP mod
CSc1nnc(-c2sc3cc(C(F)(F)F)cnc3c2-c2cccnc2)n1C,25%,4,-1.1,-6,-12%,-2%,?
O=C(c1ccc(F)cc1)N1CCC(C(=O)N2CCCc3ccccc32)CC1,.,.,.,-2,-70%[inhibitor],.,-1.8%
COC(=O)c1ccccc1NC(=O)C1CCN(S(=O)(=O)c2cc(C)ccc2OC)CC1,6%,1,1.0,7,-15%,-7%[15.4 µM],?
CN(c1ccccc1)S(=O)(=O)c1ccc(Cl)c(C(=O)NCCc2c[nH]c3ccccc23)c1,15%,?,1.8,15,-32%[inhibitor],-14%,2.1%
CCCC(C(=O)NCC1CCCO1)N(Cc1ccccc1)C(=O)CNS(=O)(=O)c1ccccc1 (stereo not drawn),28%,-2,4.3,1,-2%,-1%,.
CC(O)[C@H]1CN=C(N)N1CCCCC1CCCCC1 (stereo partly drawn),13%,-19,4.1,-3,?,8%,-0.3%
CCOC(=O)CN1C(=O)N[C@@H](CCc2ccccc2)[C@H](C(C)=O)[C@H]1C,4%,.,-0.5[11.7 µM],7,-52%[inhibitor],19%,0.6%
O=C(OCC(=O)c1ccc[nH]1)c1ccc2ccccc2n1,7%,12,3.4,-10,-11%,-7%,-6.6%
CC(C)c1ccccc1OCCNC(=O)c1cccnc1,12%,-11,3.0,5,-20%,1%,.
O=C(CSc1nnnn1C1CC1)N1CCN(c2ccccc2F)CC1,.,-11,.,-12,16%,9%,0.3%
COCCn1c(=S)[nH]c2cc(C(=O)NC(C)C)ccc2c1=O,21%,1,2.6,40,-40%[inhibitor],3%,-0.5%
CC(=O)Nc1nc(=O)c2ccccc2s1,?,-21,-1.0,2,-8%,6%,-2.4%
CCC(=O)Nc1c(S(=O)(=O)c2ccccc2)c2nc3ccccc3nc2n1C(C)c1ccccc1 (stereo not drawn),-2%,-1,5.1,51,-1%,-30%,32µM*
O=C(O)[C@H](Cc1ccccc1)NC(=O)N1CCCCCC1,10%,-1,-0.5,15,23%,11%,0.7%
CCOc1ccc(CC(=O)Nc2c3c(nn2C(C)(C)C)CS(=O)(=O)C3)cc1,1%,9,4.6,3,7%[15.4 µM],12%,1.0%
CCCn1c(SCc2nc(-c3cccs3)no2)nnc1-c1ccncc1,9%,24,-1.3,-9,18%,-1%,0.7%
CC(Sc1nc2c(c(=O)[nH]1)CCCC2)C(=O)Nc1ccc(S(N)(=O)=O)cc1 (stereo not drawn),11%,1,-1.0,-5,-4%[15.4 µM],9%,.
COC(=O)c1ccccc1N1CCS(=O)(=O)CC1,22%,-17,6.3,-3,?,0%,.
O=C(O)CCC(=O)Nc1ccc(N2CCCCCC2)cc1,22µM*,-23,1.1,35,16%,-20%,-2.2%
Cc1cc(C)cc(NC(=O)Nn2cnnc2)c1,12%,-20,-2.0,20,-4%[15.4 µM],16%,0.6%
COCCn1c(SCC(=O)Nc2nnc(C)s2)nnc1-c1cc2ccccc2cc1O,11%,3,-2.4,-3,-30%[inhibitor],-5%,-1.9%
Cn1c(=O)[nH]c(=O)c2c1nc(CN1CCOCC1)n2CCCc1ccccc1,19%,-1,0.6,-19,-44%[inhibitor],5%,0.0%
N#CCCN(C(=O)COC(=O)c1ccc(S(=O)(=O)N2CCCCCC2)cc1)c1ccccc1,.,-2,.,-12,2%[15.4 µM],11%,1.3%
O=C(O)CCc1nc2cc3ccccc3cc2[nH]1,22%,-1,-4.7,-8,16%,7%,.
CC12CCC(=O)N1C(C(=O)NCCN1C(=O)S/C(=C\c3ccc(OC(F)F)cc3)C1=O)CS2 (stereo not drawn),.,-4,.,9,-2%,-5%,?

# Complete entries, looked up by structure. Values in the order: Sfp PPTase inh | TRPV1 PAM | Menin MLL FP FL | TRPML1 blocker | gsp ag | gsp antagonist | ClpP mod
# CCOC(=O)CN1C(=O)N[C@@H](CCc2ccccc2)[C@H](C(C)=O)[C@H]1C across the screens: 4% | . | -0.5[11.7 µM] | 7 | -52%[inhibitor] | 19% | 0.6%
# COCCn1c(SCC(=O)Nc2nnc(C)s2)nnc1-c1cc2ccccc2cc1O across the screens: 11% | 3 | -2.4 | -3 | -30%[inhibitor] | -5% | -1.9%
# CC(Sc1nc2c(c(=O)[nH]1)CCCC2)C(=O)Nc1ccc(S(N)(=O)=O)cc1 (stereo not drawn) across the screens: 11% | 1 | -1.0 | -5 | -4%[15.4 µM] | 9% | .
# CCCC(C(=O)NCC1CCCO1)N(Cc1ccccc1)C(=O)CNS(=O)(=O)c1ccccc1 (stereo not drawn) across the screens: 28% | -2 | 4.3 | 1 | -2% | -1% | .
# CCOc1ccc(CC(=O)Nc2c3c(nn2C(C)(C)C)CS(=O)(=O)C3)cc1 across the screens: 1% | 9 | 4.6 | 3 | 7%[15.4 µM] | 12% | 1.0%

# Next compounds follow.
SMILES,Sfp PPTase inh,TRPV1 PAM,Menin MLL FP FL,TRPML1 blocker,gsp ag,gsp antagonist,ClpP mod
O=C1COc2ccc(C(=O)CSc3nnc(NCc4ccccc4)s3)cc2N1,0%,0,1.9,-16,14%,-9%,-0.4%
c1ccc(CC2CCN(c3ncnc4sccc34)CC2)cc1,?,-12,8.4,8,-93%[inhibitor],-24%,-0.7%
CC(C)Cn1c(-c2ccc(Cl)cc2)cnc1SCC(=O)N1CCOCC1,12%,-7,1.3,6,20%,-13%,-0.5%
O=C(CNC(=O)OCc1ccccc1)NC1CCCCCC1,27%,-6,4.2,-10,-27%,-4%,.
CC(C)CCN1NC2(CCCC(C)C2)NC1=S (stereo not drawn),71µM*,-6,1.2,9,-6%[15.4 µM],?,.
CS(=O)(=O)N(CC(=O)N1CCc2ccccc2C1)c1cccc(Br)c1,.,.,.,44,-12%,0%,0.3%
CC1O[C@@H](OC2C(O)C(C)O[C@H](OC(=O)[C@]34CCC(C)(C)C[C@H]3C3=CCC5[C@@]6(C)CC(O)C(O[C@@H]7OC(CO)C(O)[C@@H](O)[C@@H]7O)[C@@](C)(C(=O)O)C6CC[C@@]5(C)[C@]3(CO)CC4)C2O[C@H]2OC(C)[C@@H](O[C@@H]3OCC(O[C@@H]4OC(CO)C(O)[C@H](O)C4O)[C@@H](O)[C@@H]3O)[C@H](O)C2O)C(O)C(O)C1O (stereo partly drawn),.,.,.,-3,.,11%,0.6%
CCOC(=O)c1ccc(NC(=O)C2(c3ccc(OC)cc3)CCCC2)cc1,15%,-11,13,5,14%,-4%,-0.2%
Nc1nc(C2CC2)c(Sc2sc(N)nc2C2CC2)s1,-21%,11,-0.2,0,14%,2%,-0.5%
CCC(Oc1ccccc1)C(=O)N1CCN(CC)CC1 (stereo not drawn),9%,21,-2.9,0,13%,-6%,0.2%
Cc1cc(=O)[nH]c2c(C)cc(S(=O)(=O)Nc3ccc(O)cc3)cc12,-4%,16,4.6,.,-4%,2%,-1.1%
CC1Cc2ccccc2N1C(=S)NC(=O)c1ccc(Cl)cc1Cl (stereo not drawn),23%,25,2.1,1,5%,-25%,1.6%
CS(=O)(=O)N1CCC(C(=O)Nc2cc(Cl)c(Cl)cc2Cl)CC1,7%,-26,-8.3,-8,?,-1%,.
Cc1[nH]c(=O)[nH]c(=O)c1NC(=O)c1ccccc1[N+](=O)[O-],.,.,.,3,11%,.,2.4%
CC(C)CC1NC(=O)N(CC(=O)N2CCN(S(=O)(=O)c3ccccc3)CC2)C1=O (stereo not drawn),18%,-10,-1.0,3,-8%,14%,0.9%
O=C(NCC1COc2ccccc2O1)c1cccc(S(=O)(=O)N2CCOCC2)c1 (stereo not drawn),.,-17,.,13,17%[15.4 µM],-1%,-1.9%
O=C(CCc1ccccc1)NC(=S)Nc1cccc(Br)c1,1%,-6,8.6,22,-33%[inhibitor],-12%,-0.2%
CCCNC(=O)Nc1ccc2c(c1)nc(C)n2C,7%,12,1.8,-10,-38%,10%,-4.2%
Cc1ccc(OCC(=O)Nc2ccc(O)c(-c3nc4ccccc4o3)c2)cc1,9%,12,7.8,0,?,10%,-1.4%
CCCc1[nH]nc2c1C(c1cccnc1)C(C#N)=C(N)O2 (stereo not drawn),4%,-7,0.7,8,-4%,-4%,-1.3%
Cc1ccccc1NC(=O)Cn1c(=O)n(-c2ccc(CC(=O)NCC3CCCO3)cc2)c(=O)c2ccccc21 (stereo not drawn),28%,3,0.5,18&1,0%,10%,-18%&-9.0%
S=C(NCCOCCOCCNC(=S)Nc1ccccc1)Nc1ccccc1,3%,4,-0.8,6,5%[15.4 µM],-7%,.
Cc1ccc(S(=O)(=O)n2ccnc2)cc1C,-11%,-12,-1.3,-4,1%,3%,-2.5%
CCc1ccccc1NC(=O)CCc1c(C)nn(-c2ccc(N3CCOCC3)nn2)c1C,10%,-23,4.8,12&-10,29%,15%,-1.9%&-5.4%
COc1ccc(-n2nc(C(=O)NCC(=O)N3CCOCC3)c3ccccc3c2=O)c(OC)c1,12%,?,-5.2,5,2%,5%,.
OCCC1CN(CC2CCCCC2)CCN1CC1CCCCC1 (stereo not drawn),12%,-4,-3.7,19,3%[15.4 µM],10%,-5.5%
Cc1ccc(NC(=O)C2COc3ccccc3O2)c(C)c1 (stereo not drawn),12%,-20,-5.6,-18,-1%[15.4 µM],3%,2.2%
Cc1nc(N/N=C/c2cccc(F)c2)cc(N2CCOCC2)n1,20%,-43,-0.9,13,4%[15.4 µM],-15%,1.8%
Cc1cc(C)n(-c2nc3ccccc3n3cnnc23)n1,12%,1,2.8,-3,12%,5%,-2.9%
